Screening data from PubChem.
FGF22 binding = binders of human FGF22 protein, primary screen, FGF22 synaptogenesis inhibitor project, biophysical, thermal shift, single point; Fibroblast growth factor 22 (Homo sapiens), Q9HCT0; recombinant FGF22 thermal shift, SYPRO orange fluorescence; percent of sucrose octasulfate shift, DMSO zero; calls only at 9.99 µM; actives 1.5% (n = 340,000);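 active = melting point raised past a set limit in the mean and every replicate; three in four hits are not shown here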
Target sequence (Q9HCT0 whole entry, looked up): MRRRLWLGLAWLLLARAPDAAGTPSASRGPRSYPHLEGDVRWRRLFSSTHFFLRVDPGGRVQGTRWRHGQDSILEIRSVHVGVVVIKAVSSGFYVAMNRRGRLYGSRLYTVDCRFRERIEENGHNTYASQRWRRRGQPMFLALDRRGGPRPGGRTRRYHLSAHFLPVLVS
AF4-AF9 inh = inhibitors of AF4 peptide binding to AF9, primary screen, biochemical, AlphaScreen, biotin-AF4 peptide, FLAG-AF9, single point. Protein AF-9 (Homo sapiens), P42568. AID 651704, 2012. inhibition, % at 10 µM. actives 0.47% (n = 350,000);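 active = every replicate reaching a set inhibition limit, whatever the replicate mean, cut at about 25% in these data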;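 also: 0% = plate neutral control median and 100% = total signal loss; the record names both 10 and 1 µM as test concentration; the first replicate is given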
Target sequence (P42568 whole entry, looked up): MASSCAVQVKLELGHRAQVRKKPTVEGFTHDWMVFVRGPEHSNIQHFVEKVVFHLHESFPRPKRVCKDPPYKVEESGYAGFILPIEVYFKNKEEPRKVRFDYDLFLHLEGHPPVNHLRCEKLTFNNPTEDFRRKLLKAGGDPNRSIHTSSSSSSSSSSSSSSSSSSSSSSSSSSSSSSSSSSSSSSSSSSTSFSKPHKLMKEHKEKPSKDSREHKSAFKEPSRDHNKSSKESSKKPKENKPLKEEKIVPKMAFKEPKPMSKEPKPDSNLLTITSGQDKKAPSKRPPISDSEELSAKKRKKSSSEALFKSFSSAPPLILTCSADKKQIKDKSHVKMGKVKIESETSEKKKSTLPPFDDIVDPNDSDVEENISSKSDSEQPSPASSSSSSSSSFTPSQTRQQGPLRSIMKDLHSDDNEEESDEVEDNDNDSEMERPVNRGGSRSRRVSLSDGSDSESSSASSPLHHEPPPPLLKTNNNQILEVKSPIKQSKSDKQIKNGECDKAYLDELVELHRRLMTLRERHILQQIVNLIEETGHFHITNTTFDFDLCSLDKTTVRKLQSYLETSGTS
Numbers without * were called inactive; i = inactive; + = active, no number.

Below each SMILES – FGF22 binding | AF4-AF9 inh
O=C(N[C@@H]1CC[C@H](CCNS(=O)(=O)c2ccc(F)cc2)O[C@H]1CO)c1ccccn1
  i | 0.8
CN1C(=O)c2cc(NC(=O)c3ccc(F)cc3)ccc2OC[C@H]2O[C@@H](CC(=O)NC3CCC3)CC[C@@H]21
  i | -0.3
COc1ccc(S(=O)(=O)Nc2ccc3c(c2)CC(=O)N([C@@H](C)CO)C[C@@H](C)[C@H](CN(C)Cc2ccc(Oc4ccccc4)cc2)O3)cc1
  i | 2.7
C[C@@H]1CCCCO[C@H](CN(C)C(=O)C2CCCCC2)[C@H](C)CN([C@@H](C)CO)C(=O)c2cc(NS(=O)(=O)c3ccc(Cl)cc3)ccc2O1
  i | 5.4
COc1cccc(CN2CC3(CN(Cc4ccccn4)C3)c3c([nH]c4cc(OC)ccc34)[C@H]2CO)c1
  i | 1.5
CC(C)CC#Cc1ccc2c(c1)O[C@H](CN(C)C(=O)Nc1ccccc1)[C@@H](C)CN([C@@H](C)CO)S2(=O)=O
  i | 4.1
C[C@H](CO)N1C[C@H](C)[C@H](CN(C)CC2CC2)Oc2ccc(NC(=O)CCCCCC(=O)Nc3ccccc3N)cc2CC1=O
  i | 3.5
C[C@H](CO)N1C[C@H](C)[C@H](CN(C)S(=O)(=O)c2cccc(F)c2)Oc2cc(C#CCN(C)C)ccc2S1(=O)=O
  i | 7.4
C[C@H](CO)N1C[C@H](C)[C@@H](CN(C)C(=O)Nc2ccccc2)OCCCC[C@H](C)Oc2ccc(NS(=O)(=O)c3ccccc3)cc2C1=O
  i | -0.6
O=C(NC1Cc2ccccc2C1)[C@H]1[C@H](CO)[C@H]2Cn3c(ccc(-c4ccccc4F)c3=O)[C@@H]1N2
  i | 0.8
CCC(=O)N(C)C[C@H]1Oc2ncc(-c3ccccc3C)cc2C(=O)N([C@H](C)CO)C[C@@H]1C
  i | -3.1
O=C(C[C@H]1C[C@H]2c3cc(NC(=O)Nc4ccccc4F)ccc3O[C@H]2[C@@H](CO)O1)NCCc1ccccc1
  i | -3.9
C[C@@H]1CN([C@@H](C)CO)C(=O)c2cc(NC(=O)Nc3ccc4c(c3)OCO4)ccc2O[C@@H]1CN(C)Cc1ccc(C(=O)Nc2ccccc2N)cc1
  i | 4.2
COCC(=O)N(C)C[C@@H]1Oc2ncc(-c3ccccc3C)cc2C(=O)N([C@@H](C)CO)C[C@@H]1C
  i | -4.2
C/C=C/c1ccc([C@H]2[C@@H](CNC(=O)CC3CC3)N(C(=O)CC)[C@H]2CO)cc1
  i | -1.8
C[C@H](CO)N1C[C@H](C)[C@H](CN(C)Cc2ccc(C(=O)Nc3ccccc3N)cc2)OCCCC[C@H](C)Oc2ccc(NC(=O)C3CCCCC3)cc2C1=O
  i | -0.5
Cc1cc(C(=O)Nc2cccc3c2O[C@@H](CN(C)C(=O)Nc2c(C)noc2C)[C@H](C)CN([C@@H](C)CO)C3=O)n(C)n1
  i | -3.4
C[C@@H]1CN([C@H](C)CO)C(=O)c2cccc(N(C)C)c2O[C@@H]1CN(C)Cc1ccc2c(c1)OCO2
  i | -1.9
Cc1ccc(S(=O)(=O)N(C)C[C@@H]2OCCCC[C@@H](C)Oc3ccc(NS(=O)(=O)c4ccccc4)cc3C(=O)N([C@@H](C)CO)C[C@H]2C)cc1
  i | 2.2
CNC[C@H]1Oc2c(NC(=O)c3ccc(-c4nccs4)cc3)cccc2C(=O)N([C@H](C)CO)C[C@H]1C
  i | 1.4
COc1ccc(C#Cc2c(-c3ccccc3OC)oc3ccccc23)cc1
  i | 2.3
CN(C)C(=O)C[C@@H]1C[C@H]2c3cc(NC(=O)CC4CC4)ccc3O[C@H]2[C@H](CO)O1
  i | -2.7
COc1ccc(S(=O)(=O)Nc2ccc3c(c2)C(=O)N([C@@H](C)CO)C[C@H](C)[C@@H](CN(C)C(=O)c2ccccc2)OCCCC[C@@H](C)O3)cc1
  i | -1.7
C[C@@H]1CN([C@H](C)CO)C(=O)c2cccc(NS(C)(=O)=O)c2O[C@H]1CN(C)C(=O)Nc1cccc2ccccc12
  i | 0.7
COc1ccc(S(=O)(=O)N(C)C[C@H]2OCCCC[C@@H](C)Oc3ccc(NS(=O)(=O)c4cn(C)cn4)cc3C(=O)N([C@@H](C)CO)C[C@H]2C)cc1
  i | -0.5
C[C@@H]1CN([C@H](C)CO)C(=O)CCCn2nncc2CO[C@@H]1CN(C)CC1CCCCC1
  i | -7.3
COC(=O)C1=C(C)N(Cc2ccc(C(F)(F)F)cc2)C(=NCc2cc(OC)c(OC)c(OC)c2)NC1c1cccc(Cl)c1 (stereo not given)
  i | 11.6
Cc1noc(C)c1NC(=O)Nc1ccc2c(c1)CC(=O)N([C@H](C)CO)C[C@@H](C)[C@@H](CN(C)C(=O)Nc1ccc3c(c1)OCO3)O2
  i | 0.1
CN(C)C(=O)c1cccc(-c2ccc([C@H]3[C@H]4CN(CCC(F)(F)F)CCCCN4[C@H]3CO)cc2)c1
  i | 0.7
CC(=O)N1C[C@@H]2[C@H](c3ccccc31)[C@H](CO)N2C(=O)c1ccc(F)cc1
  i | -1.7

Shown field by field: 3 of the compounds above
C[C@H](CO)N1C[C@H](C)[C@H](CN(C)Cc2ccc(C(=O)Nc3ccccc3N)cc2)OCCCC[C@H](C)Oc2ccc(NC(=O)C3CCCCC3)cc2C1=O
  FGF22 binding = i; AF4-AF9 inh = -0.5
Cc1cc(C(=O)Nc2cccc3c2O[C@@H](CN(C)C(=O)Nc2c(C)noc2C)[C@H](C)CN([C@@H](C)CO)C3=O)n(C)n1
  FGF22 binding = i; AF4-AF9 inh = -3.4
C[C@@H]1CN([C@H](C)CO)C(=O)c2cccc(N(C)C)c2O[C@@H]1CN(C)Cc1ccc2c(c1)OCO2
  FGF22 binding = i; AF4-AF9 inh = -1.9

Other results follow.
Below each SMILES – FGF22 binding | AF4-AF9 inh
C[C@@H]1CN([C@@H](C)CO)S(=O)(=O)c2ccc(C3=CCCCC3)cc2O[C@H]1CN(C)C(=O)C1CC1
  i | 0.3
C[C@H]1CN([C@@H](C)CO)C(=O)Cc2cc(NC(=O)Nc3ccc4c(c3)OCO4)ccc2O[C@H]1CN(C)C(=O)Nc1ccc(C(F)(F)F)cc1
  i | 6.2
C[C@@H]1CCCCO[C@H](CN(C)S(=O)(=O)c2ccc(Cl)cc2)[C@@H](C)CN([C@H](C)CO)C(=O)c2cc(NC(=O)CCC(F)(F)F)ccc2O1
  i | 0.2
CC(C)C#Cc1ccc2c(c1)O[C@@H](CN(C)C(=O)c1ccccc1)[C@H](C)CN([C@H](C)CO)S2(=O)=O
  i | 7.2
C[C@H]1CN([C@@H](C)CO)C(=O)c2cc(NC(=O)c3ccncc3)ccc2O[C@@H]1CN(C)C(=O)Nc1ccc(C(F)(F)F)cc1
  i | -3.5
CO[C@H](CN(C)S(=O)(=O)c1ccccc1)[C@@H](C)CN(C(=O)Nc1ccccc1F)[C@H](C)CO
  i | -1.6
C[C@@H]1CCCCO[C@H](CN(C)S(=O)(=O)c2ccccc2)[C@H](C)CN([C@@H](C)CO)C(=O)c2cc(NC(=O)Nc3ccc4c(c3)OCO4)ccc2O1
  i | 5.1
COc1ccc(NC(=O)Nc2ccc3c(c2)C(=O)N([C@@H](C)CO)C[C@@H](C)[C@H](CN(C)Cc2ccc(C(=O)O)cc2)OCCCC[C@H](C)O3)cc1
  i | 0.2
CCCNC(=O)C[C@H]1CC[C@H]2[C@H](COc3ccc(NC(=O)NC(C)C)cc3C(=O)N2C)O1
  i | 1.1
Cc1noc(C)c1S(=O)(=O)Nc1cccc2c1O[C@H](CN(C)S(=O)(=O)c1ccccc1)[C@H](C)CN([C@H](C)CO)C2=O
  i | -13.1
COc1ccccc1NC(=O)N(C)C[C@H]1Oc2ncc(Br)cc2C(=O)N([C@@H](C)CO)C[C@@H]1C
  i | -1.1
Cc1noc(C)c1S(=O)(=O)Nc1ccc2c(c1)CC(=O)N([C@@H](C)CO)C[C@@H](C)[C@H](CN(C)Cc1ccc(-c3ccccc3)cc1)O2
  i | 0.6
CN(C)CC#Cc1ccc([C@H]2[C@H](CO)N3C(=O)CN(C(=O)c4ccc(F)cc4)C[C@@H]23)cc1
  i | -2.1
C[C@@H]1CN([C@@H](C)CO)S(=O)(=O)c2ccc(-c3ccccc3)cc2O[C@H]1CN(C)S(C)(=O)=O
  i | -0.5
CC(C)c1cn(CC[C@H]2CC[C@H](NS(=O)(=O)c3ccccc3)[C@H](CO)O2)nn1
  i | -1.9
C[C@@H]1CCCCO[C@H](CN(C)Cc2ccc(C(=O)O)cc2)[C@H](C)CN([C@H](C)CO)C(=O)c2cc(NC(=O)CCCN(C)C)ccc2O1
  i | -2.0
C[C@@H]1CN([C@@H](C)CO)C(=O)c2cc(NC(=O)Cc3cn(C)c4ccccc34)ccc2O[C@H]1CN(C)S(C)(=O)=O
  + | -0.9
C[C@H](CO)N1C[C@H](C)[C@H](CN(C)S(=O)(=O)c2cccs2)OCCCC[C@H](C)Oc2ccc(NS(=O)(=O)c3ccc(Cl)cc3)cc2C1=O
  + | -3.1
C/C=C/c1ccc2c(c1)O[C@H](CN(C)Cc1ccc(C(=O)O)cc1)[C@@H](C)CN([C@H](C)CO)S2(=O)=O
  i | 0.1
CCC(=O)Nc1ccc2c(c1)C(=O)N(C)[C@@H]1CC[C@@H](CC(=O)NCc3ccc(OC)cc3)O[C@@H]1CO2
  i | 0.4
C[C@@H]1CN([C@H](C)CO)C(=O)c2cc(NC(=O)Nc3cccc4ccccc34)ccc2O[C@@H]1CN(C)S(C)(=O)=O
  i | 1.0
C[C@@H]1CN([C@@H](C)CO)C(=O)c2cc(C#Cc3ccccc3F)cnc2O[C@@H]1CN(C)S(C)(=O)=O
  i | -2.3
C[C@@H]1CN([C@@H](C)CO)C(=O)c2ccccc2-c2ccccc2CO[C@@H]1CN(C)S(=O)(=O)c1ccc([N+](=O)[O-])cc1
  i | 2.7
C[C@@H]1CCCCO[C@@H](CN(C)C(=O)Nc2ccc(C(F)(F)F)cc2)[C@@H](C)CN([C@H](C)CO)C(=O)c2cc(NS(=O)(=O)c3cn(C)cn3)ccc2O1
  i | 7.4
CCNC(=O)C[C@@H]1CC[C@@H]2[C@@H](COc3ccc(NC(=O)c4cccs4)cc3C(=O)N2C)O1
  i | -0.9
COc1ccc2c3c([nH]c2c1)[C@H](CO)N(C(=O)c1ccc(F)cc1)CC31CN(S(=O)(=O)c2cccs2)C1
  i | -1.6
CCCC#Cc1ccc2c(c1)O[C@H](CN(C)C(=O)C1CC1)[C@@H](C)CN([C@@H](C)CO)S2(=O)=O
  i | 5.1
C[C@@H]1CN([C@H](C)CO)C(=O)Cc2cc(NC(=O)Nc3ccc4c(c3)OCO4)ccc2O[C@H]1CN(C)S(=O)(=O)c1ccc(Cl)cc1
  i | 3.9
O=C(C1=C[C@H](c2ccc(C(F)(F)F)cc2)C[C@H](OCc2ccc(CO)cc2)O1)N1CCCC1
  i | -1.3
O=C(C[C@H]1CC[C@H](NC(=O)C2CCC2)[C@@H](CO)O1)NCCCN1CCOCC1
  i | -0.5
C[C@@H]1CN([C@H](C)CO)C(=O)c2c(c3ccccc3n2C)-c2ccccc2CO[C@H]1CN(C)Cc1ccncc1
  i | 0.7
CCc1c(-c2ccccc2Br)ncn1CCc1ccccc1OC
  i | 6.9
C[C@@H]1CN([C@@H](C)CO)S(=O)(=O)c2ccc(-c3cncnc3)cc2O[C@H]1CN(C)C(=O)Cc1cccnc1
  i | -3.9
C[C@@H]1CN([C@@H](C)CO)C(=O)c2cc(NS(=O)(=O)c3ccc(Cl)cc3)ccc2O[C@@H](C)CCCCO[C@@H]1CN(C)C(=O)Nc1ccc(C(F)(F)F)cc1
  i | -0.6
COc1ccc2c3c(n(C)c2c1)[C@H](CO)N(C(=O)C1CCOCC1)CC31CCN(Cc2cccc(F)c2)CC1
  i | -2.0
COC(=O)c1ccc2nc(C3CCCCC3)c(Cc3ccccc3OC)n2c1
  i | -1.5
COC(=O)c1cc2c(c3c4cc(F)ccc4n(S(=O)(=O)c4ccc(C)cc4)c13)C(=O)N(Cc1ccc(N(C)C)cc1)C2
  i | 1.7
C[C@H](CO)N1C[C@H](C)[C@@H](CN(C)C(=O)c2ccccc2)OCCCC[C@H](C)Oc2ccc(NS(C)(=O)=O)cc2C1=O
  i | 0.7
Cc1ccc(S(=O)(=O)N(C)C[C@H]2Oc3ccc(NC(=O)Nc4ccccc4)cc3CC(=O)N([C@H](C)CO)C[C@H]2C)cc1
  i | 3.2
O=C(C[C@H]1CC[C@H]2[C@@H](COC[C@H](O)CN2Cc2cc(F)ccc2F)O1)NCc1ccc(Cl)cc1
  i | 5.8
CN1c2ccc(C3=CCCCC3)cc2[C@@H]2[C@@H](CCN2C(=O)C2CCCC2)[C@H]1CO
  i | 1.6
CC(=O)N(C)C[C@H]1Oc2cc(-c3cncnc3)ccc2S(=O)(=O)N([C@H](C)CO)C[C@@H]1C
  i | -2.0
C/C=C/c1ccc([C@@H]2[C@H](CO)N(C(=O)CN(C)C)C23CN(C(=O)C2CCC2)C3)cc1
  i | 4.9

3 compounds drawn at random from those above, as already listed:
Below each SMILES – FGF22 binding | AF4-AF9 inh
COC(=O)c1ccc2nc(C3CCCCC3)c(Cc3ccccc3OC)n2c1
  i | -1.5
O=C(C[C@H]1CC[C@H](NC(=O)C2CCC2)[C@@H](CO)O1)NCCCN1CCOCC1
  i | -0.5
Cc1ccc(S(=O)(=O)N(C)C[C@H]2Oc3ccc(NC(=O)Nc4ccccc4)cc3CC(=O)N([C@H](C)CO)C[C@H]2C)cc1
  i | 3.2

The list is partial (hit frequency here may not be typical).
